Cruzain Triton: qHTS Assay for Promiscuous and Specific Inhibitors of Cruzain (with detergent). purified cruzain, Z-FR-AMC fluorescence, 0.01% Triton. Potency, µM, without a hit: max response, negative = inhibition, usual class: inhibitors. Cruzipain (Trypanosoma cruzi), P25779. 200,000 compounds, 0.43% hits. AID 1478, 2009;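 note: plate controls were neutral wells for no effect and buffer without enzyme for full effect; nearly all actives have a fitted effect of over 40% in size; top concentration of the series not given in the record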
Target sequence (P25779 123-467 limits assumed): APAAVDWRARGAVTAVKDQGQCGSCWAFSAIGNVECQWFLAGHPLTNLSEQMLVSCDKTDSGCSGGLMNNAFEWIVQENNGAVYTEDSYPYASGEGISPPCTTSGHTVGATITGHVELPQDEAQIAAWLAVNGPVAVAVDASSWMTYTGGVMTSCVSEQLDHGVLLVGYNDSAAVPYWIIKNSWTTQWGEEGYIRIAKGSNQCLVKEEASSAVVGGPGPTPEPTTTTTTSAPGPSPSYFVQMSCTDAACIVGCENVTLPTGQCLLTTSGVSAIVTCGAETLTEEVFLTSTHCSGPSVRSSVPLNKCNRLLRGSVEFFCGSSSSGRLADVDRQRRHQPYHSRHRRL
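Enzyme 1.5 nM, Z-FR-AMC 2 uM, NaOAc 100 mM pH 5.5, DTT 5 mM, Triton X-100 0.01%; 15 min RT compound preincubation; kinetic ex360/em450, 60 s delta.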
RE007 growth inh: qHTS Assay for Inhibitors of the HIV-1 protein Vpr; Potency, µM (titrated, usually from 92.2 µM), inactives show at the top dose activity change, negative = less growth; S. pombe RE007 Vpr strain, BacTiter-Glo ATP luminescence, 24 h; control for the full effect not named in the record; 360,000 compounds, 0.21% hits; AID 651644, 2012; active = well fitted falling curve with a large enough effect; inconclusive = small, poorly fitted or top-dose-only effect; inactive = no such curve, though single readings can be large or run the other way;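 note: % is set by controls: 0 for no effect and ±100 for the full control effect; nearly all actives have a fitted effect of over 50% in size; the assay follows cell death caused by Vpr and the record does not say whether a fall means rescue or toxicity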
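Fission yeast strain RE007, carrying one chromosomally integrated HIV-1 vpr copy, was seeded at OD 0.01 in PMG+AL medium with 23 nL pinned compound. After 24 h at 30 °C and 99% humidity, viability was read by BacTiter-Glo luminescence.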
NS1 function inh: qHTS Assay for Inhibitors of Influenza NS1 Protein Function. S. cerevisiae slowed by influenza A NS1, growth recovery by OD600. Potency, µM (series often up to 46.1 µM), for inactives: top-dose activity, positive = more growth. 270,000 compounds, 0.4% hits. AID 2326, 2010; active means well fitted rising curve with a large enough effect; inconclusive means small, poorly fitted or top-dose-only effect; inactive means no such curve, though single readings can be large or run the other way; note: nearly all actives have a fitted effect of over 50% in size
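Recovery from NS1-induced slow growth read by OD600 in budding yeast switched to galactose assay medium (pH 6.0, -URA) at 1:100 dilution. Compound 23 nl per well; the matching strain lacking NS1 serves as control.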
Cruzain noTriton: qHTS Assay for Promiscuous and Specific Inhibitors of Cruzain (without detergent); Cruzipain (Trypanosoma cruzi), P25779; purified cruzain, Z-FR-AMC fluorescence, no detergent; Potency, µM, inactives show max response, negative = inhibition, actives largely listed as inhibitors; 200,000 compounds, 2.3% hits; AID 1476, 2009;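 note: plate controls were enzyme without inhibitor for no effect and buffer without enzyme for full effect; nearly all actives have a fitted effect of over 40% in size; top concentration of the series not given in the record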
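Detergent-free condition (0.00005% Triton X-100) in acetate buffer pH 5.5 with DTT. 1.5 nM enzyme and compound were pre-mixed 15 min, then 2 uM Z-FR-AMC substrate added; reaction progress from fluorescence change between first and third reads (60 s).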
LASV entry inh: qHTS for Inhibitors of binding or entry into cells for Lassa Virus; Potency, µM (highest dose often 37.9 µM), for inactives: at the top dose activity change, negative = inhibition, most hits filed as inhibitors; 300,000 compounds, 1.2% hits; Lassa virus pseudotype entry inhibition, cell reporter; control for the full effect not named in the record; active means well fitted inhibition curve with a large enough effect; inconclusive means small, poorly fitted or top-dose-only effect, or effect the other way; inactive means flat fitted curve, though single readings scatter; tested in HEK293 cells; note: % is set by controls: 0 for no effect and ±100 for the full control effect; nearly all actives have a fitted effect of over 50% in size; luciferase read-out
SARS PLpro yeast: qHTS of Yeast-based Assay for SARS-CoV PLP; Potency, µM (doses to about 32.9 µM), inactives show at the top dose activity, positive = growth rescue; 330,000 compounds, 0.19% hits; AID 485353, 2010; S. cerevisiae expressing SARS-CoV PLpro, growth rescue; control for the full effect not named in the record; active means well fitted rising curve with a large enough effect; inconclusive means small, poorly fitted or top-dose-only effect; inactive means no such curve, though single readings can be large or run the other way; note: 0% is about no effect; nearly all actives have a fitted effect of over 55% in size; growth read by luminescence after 48 h
MARV entry inh: qHTS for inhibitors of binding or entry into cells for Marburg Virus | 300,000 compounds, 1.8% hits | AID 540276, 2011 | Marburg virus pseudotyped entry inhibition, cell reporter; control for the full effect not named in the record; about a third of the inactives were read at about 46 µM | Potency, µM (highest dose often 37.8 µM), inactives show top-dose activity change, negative = inhibition, hits mostly inhibitors; active = well fitted inhibition curve with a large enough effect; inconclusive = small, poorly fitted or top-dose-only effect, or effect the other way; inactive = flat fitted curve, though single readings scatter; tested in HEK293 cells; about a fifth of its hits are not listed in these tables; note: % is set by controls: 0 for no effect and ±100 for the full control effect; luciferase read-out
2A StopGo: High Throughput Screening for Foot and Mouth Disease Virus Antivirals. human cells with a luciferase reporter of 2A StopGo recoding; control for the full effect not named in the record. Potency, µM (series often up to 57.9 µM), for inactives: top-dose signal change, negative = less light. 410,000 compounds, 1.2% hits. AID 1159524, 2015; active = well fitted falling curve with a large enough effect; inconclusive = small, poorly fitted or top-dose-only effect; inactive = no such curve, though single readings can be large or run the other way; tested in HEK293T cells; note: % is set by controls: 0 for no effect and ±100 for the full control effect; nearly all actives have a fitted effect of over 45% in size; luciferase light after 4 h
An asterisk follows results filed as active; ? = inconclusive; nt = no result given; [ ] = dose if it differs, or a comment. Unless noted, calls come from the whole dose curve; as a rule, active = well fitted curve in the direction sought with a large enough effect; inconclusive = small, poorly fitted or top-dose-only effect, or another doubt; inactive = no such curve, though single readings can be large; an effect the other way counts as inactive or inconclusive. Potency is the fitted concentration of half-maximal effect. Not a hit list; about 4.7% have a hit in one of these screens.

structure	Cruzain Triton	RE007 growth inh	NS1 function inh	Cruzain noTriton	LASV entry inh	SARS PLpro yeast	MARV entry inh	2A StopGo
O=C(NC1(C(F)(F)F)NC(=O)N(Cc2ccccc2)C1=O)c1cccnc1 (stereo not given)	-4.8%	1%	1%	-4%	17%	-5%	4%	-23%
CC(=O)C(Cc1ccccc1)NC(=O)COc1ccc2c(c1)OCO2 (stereo not given)	nt	15%	nt	nt	15%[46.1 µM]	3%	-2%[46.1 µM]	-10%
C=C1CN(Cc2ccccc2)S(=O)(=O)c2ccccc21	nt	5%	-5%	nt	nt	0%	nt	-9%
O=c1oc2ccccc2nc1/C=C(O)/C=C\c1ccccc1	2.0%	?	-30%	-20%	-28%	-22%	27%	-7%
Cc1nn(-c2ccccc2)c(N)c1Sc1ccc([N+](=O)[O-])cc1	-13%	36%	-42%	-10%	3%	-95%	-12%	32µM*
COc1ccc2c(c1OC)C(=O)OC2CC(=O)c1ccc(O)c(O)c1 (stereo not given)	-3.6%	18%	8%	-13%	16%	5%	17%	9%
CCn1c(SCC(=O)Nc2ccccc2)nc2nc3c(cc2c1=O)COC(C)(C)C3	nt	-18%	2%	nt	nt	5%	5%	-19%
CC(C)(C)C1CCc2nc(NC(=O)Cc3ccc(Cl)cc3)sc2C1 (stereo not given)	-2.7%	nt	nt	10%	21%[46.1 µM]	nt	?	-12%
COc1ccc(-c2nc(C#N)c(N3CC(C)OC(C)C3)o2)cc1OC (stereo not given)	-5.1%	10%	-9%	9%	10%	-1%	-3%	-6%
Cc1ccc(-c2nc(=S)c3c(n2CC2CCCO2)CC(C)(C)OC3)cc1 (stereo not given)	-3.0%	-11%	4%	-3%	38%[14.3 µM]	22%	-3%	-3%
O=C(O)C1CCN(C(=O)c2ccc(Cl)cc2)CC1	4.4%	2%	5%	6%	-1%	3%	?	-11%
Cc1nn(C)c2c1c(-c1ccccc1)cc(=O)n2CC(=O)NC(C)C	-4.3%	nt	nt	7%	?	nt	nt	-8%
COc1ccc(CNC(=O)CSc2ncn[nH]2)cc1OC	nt	6%	-2%	nt	?	?	?	8%
COc1ccc(N2C(=O)CC(Nc3ccc(F)cc3)C2=O)c([N+](=O)[O-])c1 (stereo not given)	nt	-5%	11%	nt	1%	-1%	12%[46.1 µM]	-7%
COc1cc(C2C3C(=O)N(c4ccc(F)cc4)C(=O)C3ON2c2ccccc2)ccc1O (stereo not given)	-1.5%	-21%	0%	-4%	-1%	-1%	7%	-4%
COc1cc([N+](=O)[O-])ccc1N1C(=O)C2C3C=CC(C4CC34)C2C1=O (stereo not given)	nt	4%	nt	nt	-17%	1%	25%[14.2 µM]	-23%
CCc1ccccc1NC(=O)c1cc(=O)c2ccccc2o1	nt	21%	-4%	nt	nt	-1%	nt	32%[activator]
COc1cccc(NC(=O)CCC(=O)Nc2cccc(OC)c2)c1	-0.6%	4%	17%	-1%	-1%	14%	2%	-6%
Cc1cccc(NC(=O)c2cnc3n(c2=O)CCS3)c1	-5.1%	-2%	-3%	-2%	?	-4%	-8%	41%[activator]
COc1ccc(-c2cc(C3CC3)nc(N)c2C#N)cc1	nt	-4%	-1%	nt	?	-1%	?	-13%
Cn1c(=O)c2c(nc(NCCCO)n2C/C=C/c2ccccc2)n(C)c1=O	0.1%	-2%	-3%	-2%	?	-1%	?	?
CCc1ccc(CNC(=O)C2CCCN(S(=O)(=O)c3ccc4c(ccn4C)c3)C2)cc1 (stereo not given)	-4.9%	nt	nt	?	?	nt	nt	-11%
Cc1ccc2c(CN3CCCCC3C)cc(=O)oc2c1 (stereo not given)	nt	18%	2%	nt	nt	-1%	nt	15%
CCOC(=O)/C=C1\SCC(=O)N1CC(=O)Nc1cc(S(=O)(=O)N(C)C)ccc1C	nt	-19%	nt	nt	-6%[46.1 µM]	4%	1%[46.1 µM]	1%
CCc1ccc(CN(C)C(=O)CCc2nnc(CCc3ccccc3OC)o2)nc1	nt	-21%	-2%	nt	-10%[46.1 µM]	0%	-29%[46.1 µM]	1%
Fc1ccc(-c2ccc(CNCCSc3nnnn3-c3ccccc3)o2)cc1	1.4%	nt	nt	-10%	17%[46.1 µM]	nt	nt	-8%
CCN(CC)C(=O)C(=O)c1cccn1-c1c(Cl)cccc1C#N	nt	-13%	2%	nt	nt	7%	nt	1%
c1cc2c(cc1NC1CCCCCC1)OCO2	nt	-15%	1%	nt	14%	1%	-2%	21%
CN(C)S(=O)(=O)c1ccc(C(=O)NCc2nc3ccccc3s2)cc1	nt	-8%	3%	nt	nt	3%	-15%[46.1 µM]	15%
COC(=O)c1cc(C(=O)N2CCN(C(=O)c3ccco3)CC2)cc([N+](=O)[O-])c1	nt	-16%	-2%	nt	-2%	-2%	26%	-11%

Part of the list above, with two lines to a compound.
Below each SMILES – Cruzain Triton	RE007 growth inh	NS1 function inh	Cruzain noTriton	LASV entry inh	SARS PLpro yeast	MARV entry inh	2A StopGo
CCc1ccccc1NC(=O)c1cc(=O)c2ccccc2o1
  nt	21%	-4%	nt	nt	-1%	nt	32%[activator]
COc1cccc(NC(=O)CCC(=O)Nc2cccc(OC)c2)c1
  -0.6%	4%	17%	-1%	-1%	14%	2%	-6%
Cc1cccc(NC(=O)c2cnc3n(c2=O)CCS3)c1
  -5.1%	-2%	-3%	-2%	?	-4%	-8%	41%[activator]
COc1ccc(-c2cc(C3CC3)nc(N)c2C#N)cc1
  nt	-4%	-1%	nt	?	-1%	?	-13%
Cn1c(=O)c2c(nc(NCCCO)n2C/C=C/c2ccccc2)n(C)c1=O
  0.1%	-2%	-3%	-2%	?	-1%	?	?
CCc1ccc(CNC(=O)C2CCCN(S(=O)(=O)c3ccc4c(ccn4C)c3)C2)cc1 (stereo not given)
  -4.9%	nt	nt	?	?	nt	nt	-11%
Cc1ccc2c(CN3CCCCC3C)cc(=O)oc2c1 (stereo not given)
  nt	18%	2%	nt	nt	-1%	nt	15%
CCOC(=O)/C=C1\SCC(=O)N1CC(=O)Nc1cc(S(=O)(=O)N(C)C)ccc1C
  nt	-19%	nt	nt	-6%[46.1 µM]	4%	1%[46.1 µM]	1%
CCc1ccc(CN(C)C(=O)CCc2nnc(CCc3ccccc3OC)o2)nc1
  nt	-21%	-2%	nt	-10%[46.1 µM]	0%	-29%[46.1 µM]	1%

(further entries)
structure	Cruzain Triton	RE007 growth inh	NS1 function inh	Cruzain noTriton	LASV entry inh	SARS PLpro yeast	MARV entry inh	2A StopGo
COC(=O)COc1ccc(S(=O)(=O)NCC2CCCO2)cc1Cl (stereo not given)	-4.5%	-18%	5%	5%	19%	2%	6%	26%
COC(=O)c1sccc1-n1cccc1C(=O)C(=O)N1CCCC1	0.0%	-1%	0%	-3%	27%	-5%	11%	3%
Cc1cc(-c2nnc3n2N=C(c2ccccc2)CS3)n[nH]1	nt	-11%	1%	nt	-17%	0%	0%[14.2 µM]	-6%
O=C(c1ccc(Cl)cc1Cl)c1ncc(C(F)(F)F)cc1Cl	5.2%	-15%	24%	-6%	5%	4%	0%	1%
COc1ccc(S(=O)(=O)N2CCC(C(=O)NCCC(=O)NC3CC3)CC2)cc1	nt	3%	8%	nt	nt	3%	nt	3%
CCOc1ccccc1OCCCC(=O)NC1CCCc2ccccc21 (stereo not given)	-1.5%	6%	-4%	8%	-29%	20%	-2%	46%[activator]
COc1ccc(C(=O)C(CO)Oc2ccccc2OC)cc1OC (stereo not given)	1.8%	2%	2%	-7%	3%	1%	-4%	-15%
Cn1c(SCC(=O)Nc2ccc(C(=O)O)cc2)nc2scc(-c3ccccc3Cl)c2c1=O	nt	-4%	nt	nt	0%[46.1 µM]	4%	-2%[46.1 µM]	-14%
O=C(/C=C/Nc1cccc(F)c1)c1ccco1	-12%	-26%	-121%	1%	?	-5%	?	6%
COc1ccc(-n2cc(CNCCCN3CCCC3=O)c(-c3ccccc3Cl)n2)cc1	nt	-5%	-1%	nt	nt	-3%	nt	-26%
COc1cc2nc(N(CCN(C)C)C(=O)c3ccc4ccccc4c3)sc2cc1OC	nt	-5%	-37%	nt	-17%[46.1 µM]	-3%	5%[46.1 µM]	-1%
CCOc1cc(C(=O)Nc2ccc(S(=O)(=O)Nc3cnc4ccccc4n3)cc2)cc(OCC)c1OCC	nt	-10%	nt	nt	?	nt	?	35%[activator]
O=C(NCc1cccnc1)c1cccc(Cl)c1	8.3%	-3%	-49%	-11%	-8%	-2%	0%	-1%
COc1cc(C)c(CN2CCC(n3nccc3NC(=O)C3CCOC3)CC2)cc1C (stereo not given)	nt	4%	-8%	nt	nt	?	nt	18%
CC(C)C(C(=O)NCc1ccco1)N(C(=O)CNS(=O)(=O)c1ccc(Cl)cc1)C1CCCC1 (stereo not given)	-15%	0%	-7%	3%	?	0%	?	-14%
CN(C)CC(=O)N1c2ccccc2Sc2ccc(Cl)cc21	nt	7%	-3%	nt	1%	-1%	-18%[46.1 µM]	-11%
Cc1cc(C)c(NC(=O)CSc2nc(=O)n(Cc3cccnc3)c3c2CCC3)c(C)c1	-4.7%	nt	nt	-2%	13%[46.1 µM]	nt	nt	43%[activator]
COc1ccccc1N1CCN(S(=O)(=O)CCNC(=O)Cc2ccc(F)cc2)CC1	nt	-11%	nt	nt	?	-2%	-26%	-24%

From PubChem
